Vif A3G = HIV-1 Vif–A3G interaction blockers – biochemical, TR-FRET, GST-Vif 1-94, biotin-A3G peptide, dose response retest, primary screen (AID 1117319). inhibition, %, or IC50 in µM where a hit was titrated. TR-FRET GST-Vif / biotin-A3G peptide binding; higher % means a stronger effect; test concentration not given here; strong numbers were not always called active. 260,000 compounds, 0.57% hits;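 active means above the screen mean plus three standard deviations and confirmed in dose response; inconclusive means results disagree or hit not tested in dose response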;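 further: Vif residues 1-94 fused to GST binding biotinylated APOBEC3G peptide 110-148; 0% = full assay without inhibitor and 100% = GST in place of GST-Vif; retest series ran down from 100 µM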
Calb FLC = affects C. albicans growth with fluconazole; C. albicans CaCi-2 (fluconazole-resistant clinical isolate) + fluconazole, Alamar Blue growth, 48 h; 300,000 compounds, 0.57% hits; AID 1979; growth inhibition, % (no concentration beside the values);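 active means most replicates above 75%; inconclusive means exactly half above 75%; inactive means most below 75%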;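 further: all wells also contain fluconazole at 8 µg/ml as a sub-toxic cotreatment; 0% = median of DMSO wells and 100% = median of geldanamycin control wells; wells of about 8 µL received 7.5 nL stock; the first replicate is given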
HNF4A DNA FP = change in binding of human HNF4 alpha to DNA; P41235; HNF4a-FITC DNA binding, fluorescence polarization, 1 h; activity change, % at 10 µM; 360,000 compounds, 0.3% hits; AID 1224865; in the data active means activity change above about 30%, passing the limit was not always enough;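 further: controls were the assay level and a saturating level of protein; the project sought stronger binding though the title names inhibitors; some compounds called inactive have numbers as strong as hits; positive values seem to mean higher polarization but the record does not say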
Target sequence (P41235 whole entry, looked up): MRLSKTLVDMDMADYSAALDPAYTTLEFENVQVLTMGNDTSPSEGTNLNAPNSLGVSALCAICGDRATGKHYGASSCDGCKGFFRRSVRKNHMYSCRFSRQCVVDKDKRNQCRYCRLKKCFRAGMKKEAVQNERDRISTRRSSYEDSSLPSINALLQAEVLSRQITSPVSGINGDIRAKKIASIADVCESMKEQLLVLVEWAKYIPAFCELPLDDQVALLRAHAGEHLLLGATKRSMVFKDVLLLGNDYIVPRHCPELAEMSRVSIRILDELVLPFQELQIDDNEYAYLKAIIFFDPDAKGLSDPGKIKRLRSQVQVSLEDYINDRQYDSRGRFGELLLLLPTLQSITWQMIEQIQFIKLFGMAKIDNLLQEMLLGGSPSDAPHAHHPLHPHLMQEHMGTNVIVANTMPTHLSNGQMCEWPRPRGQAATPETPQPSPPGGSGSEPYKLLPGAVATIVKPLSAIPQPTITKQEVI
LANA-H2B inh = blocks KSHV LANA binding to histone H2A/H2B. cell-free LANA-H2A/H2B peptide, fluorescence polarization. inhibition, % (no concentration beside the values). 320,000 compounds, 0.6% hits. AID 2629; in the data active means inhibition mostly above about 10%, no sharp cut-off; inactive means mostly below about 6.7%;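 further: stock transfer was 7.5 nL into about 10 µL; 0% = median of vehicle wells and 100% = median of positive control wells; one replicate is shown; the record names a cut of 25% in any replicate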
Beta2AR agonist = human beta-2 adrenergic receptor agonism by FAP | P07550 | Am2.2-beta2AR cells, FAP receptor internalization, flow cytometry; reference of the scale not given here | response, % (test concentration not listed) | 340,000 compounds, 0.43% hits | AID 504454;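 active means response above a set limit, near 3 SD of response in nonfluorescent compounds, cut at about 42% in these data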;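 further: stock transfer was 100 nL into about 11 µL; a reference agonist was the positive control; negative values mostly stem from fluorescent compounds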
Target sequence (P07550 whole entry, looked up): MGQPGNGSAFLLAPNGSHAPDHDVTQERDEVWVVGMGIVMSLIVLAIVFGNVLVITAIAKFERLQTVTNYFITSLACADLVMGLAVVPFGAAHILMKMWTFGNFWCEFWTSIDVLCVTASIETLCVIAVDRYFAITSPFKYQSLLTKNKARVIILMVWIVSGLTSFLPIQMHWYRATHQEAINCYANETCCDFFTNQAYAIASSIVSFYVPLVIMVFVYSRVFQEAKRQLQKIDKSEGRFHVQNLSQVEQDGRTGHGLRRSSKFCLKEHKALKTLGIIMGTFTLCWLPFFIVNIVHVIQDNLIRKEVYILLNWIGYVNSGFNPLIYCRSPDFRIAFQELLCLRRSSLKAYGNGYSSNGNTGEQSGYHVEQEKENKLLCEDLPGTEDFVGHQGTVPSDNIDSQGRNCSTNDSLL
ALR inh = human ALR oxidase inhibition via reduced H2O2; P55789; purified ALR, DTT oxidation, H2O2 HRP-luminol luminescence; inhibition, % (no concentration beside the values); 290,000 compounds, 3.8% hits;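 active means mean and each replicate at 75% or more; inconclusive means only one of the two met; inactive means neither met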;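 further: stock transfer was 7.5 nL into about 7.5 µL; 0% = neutral wells and 100% = wells with inactivated enzyme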
RanGTP-Impb inh = disruptors of Ran-importin-beta complex formation – biochemical, FRET, CFP-Ran, YFP-importin-beta, homogeneous, primary screen; cell-free CFP-Ran/YFP-importin-beta FRET ratio; inhibition, % (test concentration not listed); 300,000 compounds, 1.1% hits;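 active means most replicates above 15%; inconclusive means exactly half above 15%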;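 further: 0% = DMSO wells and 100% = Ran loaded with GDP instead of GTP; wells of about 40 µL received 100 nL stock; the first replicate is given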
* marks the source's active call; other numbers are inactive results; ? = inconclusive; / = no result given. The order is random; about 6.3% have a hit in one of these screens.

SMILES	Vif A3G	Calb FLC	HNF4A DNA FP	LANA-H2B inh	Beta2AR agonist	ALR inh	RanGTP-Impb inh
COC(=O)CCC(=O)Nc1ccc(S(=O)(=O)N2CCCCCC2)cc1	6%	-17	-0.2	-1.7	3	-20	?
O=C(Nc1cccc(C(F)(F)F)c1)Nc1ccc2[nH]c(=O)[nH]c2c1	10%	-3	-0.8	-3.2	-1	/	?
O=C1CCC(=O)N1c1ccc(-c2nc3sc4c(c3c(=O)o2)CCC4)cc1	9%	-2	2.1	-1.2	1	11	-0.1
COC(=O)c1c(C)nc(C)c(C(=O)OC)c1-c1cccs1	6%	8	0.4	-2.5	6	5	2.8
O=S(=O)(Cc1ccccc1Cl)CC(O)COc1ccccc1Cl (configuration not stated)	0%	9	-1.5	3.8	-1	-2	-3.7
O=C(Nc1ccccc1F)c1c[nH]c(=O)[nH]c1=O	-4%	2	-6.3	1.9	5	/	-0.1
CCn1cc(C(=O)NCCCO)c(=O)c2cc(F)c(N3CCN(C)CC3)cc21	0%	-8	3.3	-2.6	-6	-16	-3.9
Cc1cc(C(=O)O)cc(S(=O)(=O)Nc2c(C)nn(C)c2C)c1C	8%	/	4.0	-1.9	3	-11	/
O=C(CC(=O)c1ccccc1)Nc1ccc(Cl)cc1	-2%	7	42*	-3.8	-9	-1	-2.6
C=CCn1c(-c2ccc(Cl)cc2)c[nH]c1=S	?	-21	-0.9	-0.6	/	97*	-1.5
CCCCC(CC)CNC(=O)C1CCCN(S(=O)(=O)c2cnc[nH]2)C1 (configuration not stated)	17%	-2	-2.6	2.7	-6	-4	2.2
O=C(Nc1cc(Cl)ccc1-n1cncn1)c1cc(F)c(F)c(F)c1F	2%	-13	-0.3	-2.6	-4	12	-0.3
CCOC(=O)N1CCN(C(=O)Cc2ccsc2)CC1	24%	-6	1.2	-1.6	9	-3	-3.3
CCOc1ccccc1N1CCN(C(=O)Nc2ccc(Cl)c(Cl)c2)CC1	21%	-1	/	3.7	/	-5	-0.7
COc1cc2c(-c3ccc4cc[nH]c4c3)c(-c3ccc(C#N)cc3)oc(=O)c2cc1OC	/	/	3.4	5.8	-5	-6	/
C=CCSc1nnc2c(n1)OC(c1cccnc1)Nc1ccccc1-2 (configuration not stated)	-5%	4	4.0	-3.6	1	-2	1.9
OCC1(CCc2ccccc2)CCN(Cc2ccc3nsnc3c2)CC1	-4%	34	0.7	2.8	-4	-26	2.8
CC(=O)Nc1ccc(S(=O)(=O)Nc2ccc(Cc3ccncc3)cc2)cc1	/	-1	9.0	-4.1	-8	-8	0.7
CCCCNC(=O)c1ccc2c(c1)ncn2C1CCCC1	-2%	1	19	9.3	-6	/	?
Cc1ccc2c(c1)C(c1ccc(F)cc1)N(C(=O)C1CC1)CC(=O)N2 (configuration not stated)	-3%	-1	-2.4	-0.5	26	19	?
CCc1ccc(NC(=O)C2CCCN(S(=O)(=O)c3cccs3)C2)cc1 (configuration not stated)	/	1	3.5	0.6	-5	6	2.9
CCS(=O)(=O)c1nc(S(=O)(=O)c2ccc(C)cc2)c(NCCCN(C)C)s1	/	-14	-4.2	9.8	-5	5	0.0
CN(C(=O)Cn1cc(C(F)(F)F)ccc1=O)c1c(N)n(Cc2ccccc2)c(=O)[nH]c1=O	0%	-4	2.2	-3.9	0	/	1.7
CCN1CCN(c2cc(C)c3cc(NC(=S)N(C)Cc4ccccc4)ccc3n2)CC1	-4%	10	-2.0	4.3	9	18	-1.3
COC(=O)c1ccc(CNC(=O)C2CCC(=O)N(CCN3CCOCC3)C2)cc1 (configuration not stated)	/	-21	-0.3	11	-3	-14	3.7
COc1ccc(NC(=S)Nc2cc(C)ccn2)c(OC)c1	13%	3	-0.7	4.2	16	-8	-0.1
CNC(=O)c1ccc(NC(=O)c2cccc(C(F)(F)F)c2)cc1	-6%	10	-2.1	-2.9	-8	-23	-0.7
CC(=O)Nc1ccc(OCc2cccc3ccccc23)cc1	/	-40	0.4	5.9	-6	-18	?
O=C(CSCc1ccc(Cl)cc1)Nc1ccc(S(=O)(=O)N2CCOCC2)cc1	-7%	-6	-1.2	2.9	6	-5	-0.3
CCCn1cc(SCC(=O)Nc2cc(C)on2)c2ccccc21	/	3	-1.2	-3.5	-1	8	3.3
O=C(COC(=O)c1ccccc1NC(=O)c1ccco1)NC1CCCCC1	-5%	-25	-2.1	-3.4	0	-13	12
COc1cccc(NC(=O)COc2ccc(C(=O)N3CCN(C)CC3)cc2)c1	2%	0	-1.5	1.7	3	-5	2.1
N#Cc1ccc(-c2ccccc2)nc1SCC(=O)c1cc2ccccc2oc1=O	0%	-5	4.6	-0.9	-9	-4	1.2
O=[N+]([O-])c1cc(C(F)(F)F)ccc1Sc1ccc2ccccc2n1	-4%	19	1.6	-0.6	3	3	-1.7
O=C1C=C(N2CCN(C(=O)c3ccccc3)CC2)C2(CCCCC2)O1	31%	-24	0.1	0.0	2	18	3.7
Cn1c(=O)c2c(nc(C(O)c3ccccc3)n2C)n(C)c1=O (configuration not stated)	0%	/	-1.0	/	-3	/	/
O=C(Nc1ccccc1Cl)c1cccs1	2%	54	2.8	-2.0	7	/	3.3
CC(C)(Oc1ccc(Cl)cc1)C(=O)Nc1cccnc1	-1%	-1	-2.6	0.8	-1	13	1.8
COc1ccc(C2=NOC(C(=O)N3CCCc4ccccc43)C2)cc1 (configuration not stated)	1%	8	5.4	-3.5	3	0	0.4
Cc1ccc(OCCN(C)C(=O)C2CCC(=O)N(CC3CCCCC3)C2)cc1 (configuration not stated)	5%	2	-1.3	0.2	-4	1	?
Cc1cc(-c2ccc(C)c(S(=O)(=O)Nc3ccc(S(N)(=O)=O)cc3)c2)on1	-2%	19	0.9	-1.8	-1	7	-1.0
COc1ccc(C(=O)c2c3ccc(OC)cc3[n+]([O-])n2Cc2ccc(C(N)=O)cc2)cc1	/	/	-4.2	-0.1	-16	-9	/
c1ccc(Cc2cc[n+](Cc3ccccn3)cc2)cc1	/	-13	1.1	6.2	5	/	-0.2
Cc1c(C)[n+](=O)c(-c2cccs2)c(C)n1[O-]	10%	-5	2.1	2.1	0	-4	-1.7
COc1ccccc1C(=O)Nc1nnc(S(=O)(=O)N2CCCCCC2)s1	/	-8	5.4	-2.1	18	-1	2.0
CC(NC(=O)C(=O)NCc1cccs1)c1ccccc1 (configuration not stated)	1%	4	0.9	-4.4	-4	1	-2.1
O=C1CN(C(=O)c2cccc([N+](=O)[O-])c2)CC(=O)N1	/	1	-2.1	-1.0	-2	-2	0.4
Clc1ccc(Nc2nc(-c3ccncc3)cs2)cc1	-3%	3	-6.3	4.1	1	-2	3.9
CCN1CCN(c2nc3c(c(=O)[nH]c(=O)n3C)n2CCSc2nc3ccccc3s2)CC1	5%	1	-1.0	1.4	4	/	-7.5
COCc1c(C(=O)N2CCc3ccccc32)oc2ccccc12	22%	2	-1.2	0.7	-4	-3	-1.5
CCOc1cccc(-c2c(C(=O)N/N=C(\C)c3cccs3)nnn2-c2nonc2N)c1	/	4	4.0	-4.8	2	2	?
Cc1ccc(C(=O)NCC2(c3ccccc3)CCCC2)cc1	-3%	0	0.8	1.4	-9	-3	2.7
Cc1ccc(S(=O)(=O)N2CCCCC2)cc1C(=O)N1C(C)CCCC1C (configuration not stated)	/	/	0.6	1.1	-13	3	/
Cc1nc(Oc2cccc(Cl)c2)c2oc3ccccc3c2n1	-1%	-8	2.1	-3.1	1	3	-3.6
COc1ccc(C2CC(c3ccccc3)=NN2C(=O)CSc2ncccn2)cc1 (configuration not stated)	9%	-10	-3.0	-1.8	-14	-10	7.4
CCOC(=O)N1CCN(C(=O)CSc2nnc(COc3ccccc3)o2)CC1	-6%	1	1.9	-0.7	-2	-7	2.5
Cc1nc(C(=O)N2CCc3c([nH]c4ccccc34)C2c2ccccn2)cs1 (configuration not stated)	-4%	24	-4.1	-0.5	-1	1	0.6
Cc1cc(OCC(=O)NNC(=O)c2cnccn2)cc(C)c1Cl	/	-3	4.0	/	-1	/	4.9
COc1ccc(C2(O)C(=O)Nc3ccc(C)cc32)cc1 (configuration not stated)	0%	2	-7.3	-2.7	-1	2	-4.7
COc1cccc(C(=O)NCCS(=O)(=O)N2CCCCC2)c1	4%	-2	-1.5	-2.3	-8	-3	4.4

(listing goes on)
SMILES	Vif A3G	Calb FLC	HNF4A DNA FP	LANA-H2B inh	Beta2AR agonist	ALR inh	RanGTP-Impb inh
O=C(NCC(=O)N1CC=C(c2ccccc2)CC1)c1ccccc1Br	-6%	13	0.2	9.5	1	-4	0.1
COc1ccc(/C=C/C(=O)OCC(=O)NCCC2=CCCCC2)cc1S(=O)(=O)N1CCOCC1	-14%	11	0.9	-4.2	-4	/	2.0
Cc1cc(=O)[nH]c(N/N=C/c2cn(CCC#N)nc2-c2ccccc2)n1	/	-14	4.5	-6.1	4	/	-1.5
COc1ccccc1C(NC(=O)C1CCCCC1)c1c(O)ccc2ccccc12 (configuration not stated)	/	-3	0.0	-2.8	1	-12	-4.2
COc1cccc(-c2cc(C(=O)Nc3ccncc3)c3ccccc3n2)c1	/	-9	-4.8	-0.5	9	-13	1.6
CCCC(CCC(=O)Nc1ccc(C(=O)OCC)cc1)C(=O)O (configuration not stated)	12%	-9	2.7	1.9	-8	2	/
CCc1c(C)c(C#N)c2nc3ccccc3n2c1NCCOC	/	11	-1.2	-0.3	12	3	?
Cc1ccccc1Sc1ccc([N+](=O)[O-])cn1	/	1	0.8	5.5	2	0	-2.3
COc1cccc(N2CC(=O)Nc3c(oc4nc(-c5ccccc5)cc(C)c34)C2=O)c1	-6%	-3	2.4	-0.8	-7	-8	2.6
COc1ccc(N2C(=O)CC(Nc3ccc(N4CCOCC4)cc3)C2=O)c(OC)c1 (configuration not stated)	?	-2	-2.6	0.7	2	98*	4.1
CCCCN(C(=O)CSc1cc(C)c2ccccc2n1)c1c(N)n(Cc2ccccc2)c(=O)[nH]c1=O	14%	-3	-0.2	3.1	4	-5	3.9
O=c1c(-c2ccccc2)c(O)c2ccccc2n1-c1ccccc1	1%	20	-4.3	1.5	-11	16	-0.5
Cc1ccccc1CN1CCCOCCS1(=O)=O	/	-7	3.2	2.1	1	1	3.6
COc1ccc(Cl)c(Cn2c(NCc3ccccn3)nc3c2c(=O)n(C)c(=O)n3C)c1	-6%	0	1.4	-11	8	/	-0.4
CCc1ccc(CNC(=O)C2CCCN(S(=O)(=O)N(CC)c3ccccc3)C2)cc1 (configuration not stated)	/	-24	3.3	-8.1	-17	-8	-0.9
CCOC(=O)N1CCN(C(=O)CC(C(=O)N2CCc3ccccc32)n2ccnc2)CC1 (configuration not stated)	6%	1	4.4	/	-7	/	2.6
Cc1ccccc1-c1cc(C(=O)NCc2ccco2)n(CC2CC(c3cccnc3)=NO2)n1 (configuration not stated)	/	/	1.9	-1.1	9	25	/
O=C(CSc1nc(O)cc(=O)n1-c1ccccc1)c1ccc(Br)cc1	-3%	-4	1.5	-0.2	0	98*	-1.3
COc1ccc(Cc2c[nH]c(=O)[nH]c2=O)cc1	9%	11	-1.2	3.2	4	/	-1.4
O=C(N/N=C/c1cccc2nccnc12)c1ccccc1O	5%	-17	-1.1	6.3	13	-4	-1.2
